Screens (PubChem BioAssay)
GLA inh pH 4.5: alpha-galactosidase A (human) inhibition, pH 4.5. purified enzyme, 4-MU-alpha-Gal fluorescence, pH 4.5. activity change, negative = inhibition, % at 105 µM. P06280. 230,000 tested, under 10 active. AID 1467; inconclusive = small, poorly fitted or top-dose-only inhibition, or a rising curve; inactive = flat fitted curve, though single readings scatter; no compound was filed as active;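 further: 0% = full activity with enzyme and -100% = basal without enzyme; dose as in the result columns while the protocol names 77 µM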
Rango release inh: prevents RanGTP from dissociating the Rango-importin beta complex; Potency, µM (highest dose often 46.1 µM), for inactives: at the top dose activity change, negative = inhibition; O95149+P62826; hit rate 0.071% among 340,000; AID 540253; Biochemical FRET Rango-importin beta, RanGTP-induced dissociation; active means falling FRET ratio curve, often poorly fitted, with flat reads before Ran was added; inconclusive means other falling curves, or compound fluorescence or quenching; inactive means flat or rising ratio curve;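 further: potency means the concentration at half of the fitted maximal effect; % of control where 0% means no effect; nearly all actives have a fitted effect of over 45% in size; -100% = wells without RanGTP and RCC1; the record marks most hits as doubtful in a second field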
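Compounds preincubate 5 min with complex of recombinant Rango and importin beta in PBS with 1 mM DTT. Ran (0.6 uM) loaded with 2 mM GTP plus 0.2 uM RCC1 starts dissociation; FRET is recorded 45 min later.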
miR-21 FLuc: raises the signal of a miR-21 reporter | HeLa miR-21 FLuc reporter, luciferase, 48 h | 340,000 tested, under 10 active | Potency, µM (titrated, usually from 38.3 µM), inactives show at the highest dose reporter change, positive = more light; active = well fitted rising curve with a large enough effect; inconclusive = small, poorly fitted or top-dose-only effect; inactive = no such curve, though single readings can be large or run the other way;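 further: % of control where 0% means no effect; miR-21 action dims this reporter so a rising signal means less miR-21 action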
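Using DMEM plus 10% FBS, HeLa miR-21-FLuc cells are incubated with test compounds (final up to about 40uM) for 48 hours; firefly luciferase signal is then imaged following reagent-mediated lysis.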
Rango-impB inh: prevents formation of the Rango-importin beta complex; Rango CFP/YFP FRET sensor + importin beta, 45 min; AID 540263; Potency, µM (series often up to 92.2 µM), without a hit: top-dose inhibition of complex formation; Q14974; hit rate 0.031% among 340,000; active = rising FRET ratio curve, often small or poorly fitted; inconclusive = mostly compound fluorescence or quenching in the first reads; inactive = flat curves in all reads;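 further: potency means the concentration at half of the fitted maximal effect; 0% = DMSO wells and 100% = buffer wells lacking importin beta; nearly all actives have a fitted effect of over 15% in size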
Target sequence (Q14974 whole entry, looked up): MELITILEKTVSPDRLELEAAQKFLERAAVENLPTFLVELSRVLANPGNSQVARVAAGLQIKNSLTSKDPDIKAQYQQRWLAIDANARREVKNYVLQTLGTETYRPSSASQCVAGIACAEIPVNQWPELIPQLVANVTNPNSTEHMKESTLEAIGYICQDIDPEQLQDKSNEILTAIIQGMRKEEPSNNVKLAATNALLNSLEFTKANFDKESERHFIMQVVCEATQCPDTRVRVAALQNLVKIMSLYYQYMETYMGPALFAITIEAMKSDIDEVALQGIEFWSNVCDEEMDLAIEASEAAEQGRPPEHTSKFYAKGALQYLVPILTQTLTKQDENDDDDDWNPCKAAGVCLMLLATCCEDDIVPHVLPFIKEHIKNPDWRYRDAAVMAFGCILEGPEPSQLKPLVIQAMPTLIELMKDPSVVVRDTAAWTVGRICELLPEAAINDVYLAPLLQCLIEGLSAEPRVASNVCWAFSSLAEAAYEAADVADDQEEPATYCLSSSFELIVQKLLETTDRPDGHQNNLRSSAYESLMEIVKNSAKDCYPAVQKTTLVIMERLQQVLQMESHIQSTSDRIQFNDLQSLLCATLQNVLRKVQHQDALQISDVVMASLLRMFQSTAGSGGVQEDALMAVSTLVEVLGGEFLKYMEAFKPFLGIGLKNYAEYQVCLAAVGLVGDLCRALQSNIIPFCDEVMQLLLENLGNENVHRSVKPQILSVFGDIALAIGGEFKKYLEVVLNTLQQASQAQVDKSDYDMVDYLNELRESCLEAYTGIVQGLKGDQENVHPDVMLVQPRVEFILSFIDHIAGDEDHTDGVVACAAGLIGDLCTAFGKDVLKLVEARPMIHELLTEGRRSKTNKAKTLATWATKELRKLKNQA
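Inhibition scored from the CFP 486 nm/YFP 530 nm FRET ratio 45 min after adding 0.125 microM importin beta to 50 nM Rango biosensor preincubated 5 min with compound (room temperature, PBS with DTT, Tween-20, BSA). No-importin wells as positive control.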
Starred values were filed as active, the others as inactive; ? = inconclusive; . = not tested or not shown; & = joins results of further samples.

Labels used below – A = GLA inh pH 4.5; B = Rango release inh; C = miR-21 FLuc; D = Rango-impB inh
COc1cc(CC(=O)OCC(=O)N2C(C)CCCC2C)cc(OC)c1OC (centres undefined)
  A: .	B: 0%	C: 6%	D: 0.2%

CCn1cc(C(=O)NCCN(C)C)c(=O)c2cc(F)c(N3CCN(C)CC3)cc21
  A: .	B: 6%	C: -2%	D: 2.5%

O=C1CCCN1CC(CN1CCOCC1)Sc1nnnn1-c1ccccc1 (centres undefined)
  A: 3	B: 6%&6%	C: -5%	D: 1.8%&2.3%

CCCCN(CC)C(=O)Cc1c(C(=O)O)[nH]c2ccc(Cl)cc12
  A: 0	B: -8%	C: 0%	D: -3.8%

CC(NC(=O)/C(C#N)=C/c1ccco1)c1ccccc1 (centres undefined)
  A: 0	B: 2%	C: -13%	D: 0.7%

COc1ccc(NC(=O)CN(C)C(=O)c2ccc(N3CCCCCC3)c([N+](=O)[O-])c2)cc1
  A: .	B: -12%	C: .	D: -0.1%

O=[N+]([O-])CC(=Nc1ccc(F)cc1)N/N=C\c1oc(O)c2ccccc12
  A: -18	B: .	C: -10%	D: .

COC(=O)CCN(C(=O)C1C2CC3CC(C2)CC1C3)c1ccccn1 (centres undefined)
  A: -14	B: 1%	C: -5%	D: 5.4%

CSc1ccccc1OCc1cc(C(=O)N2CCCC(C)C2)no1 (centres undefined)
  A: .	B: -1%	C: -48%	D: -1.5%

COCCNC(=O)C(=O)NNC(=O)COc1ccc(OC)cc1
  A: 1	B: 48%	C: -1%	D: 3.4%

O=C(CSc1nnc(-c2ccccc2O)o1)N1CCCCC1
  A: .	B: -6%	C: -22%	D: 0.3%

CC(Oc1ccccc1F)C(=O)NNC(=O)CCNC(=O)c1ccccc1Cl (centres undefined)
  A: .	B: 0%	C: 0%	D: -0.4%

Cc1cccc(-c2nc(CSCC(=O)N3CCN(c4ccccn4)CC3)c(C)o2)c1
  A: 4	B: 21%	C: 18%	D: 0.4%

CCCCn1nc(NC(=O)CC(C)C)c2cc3cc(OC)ccc3nc21
  A: .	B: ?	C: -3%	D: ?

C=CCN(CC=C)CCOc1cccc(Oc2ccccc2)c1
  A: -7	B: -3%	C: -5%	D: ?

COc1cccc(Cn2nnc(C(=O)Nc3cc(C)ccc3OC)c2N)c1
  A: -7	B: 11%	C: 4%	D: 0.6%

COC(=O)c1ccc(NC(=S)N2CCC(C(N)=O)CC2)cc1
  A: 2	B: -7%	C: -1%	D: -3.9%

COc1ccccc1NC(=O)Nc1ccc2c(c1)nnn2C
  A: 7	B: 18%	C: -41%	D: -0.3%

O=C(Oc1cccc(N2C(=O)CCC2=O)c1)C1CC(=O)N(c2ccc(F)cc2)C1 (centres undefined)
  A: 6	B: 14%	C: 1%	D: 1.1%

Cc1ccc(SCCNC(=O)c2ccccc2)cc1
  A: 1	B: -1%	C: -23%	D: -3.4%

Cc1ccccc1-c1cccc([C@@H]2C[C@H]3[C@H](CON3C)CN2C(=O)C(C)(C)C)c1
  A: .	B: 7%	C: .	D: 0.0%

Cc1ccc(Oc2ncccc2COC(=O)Nc2ccccc2C)cc1
  A: 0	B: -1%	C: -10%	D: 6.8%

NC(=O)c1ccc(NC(=O)CSC(=O)c2ccccc2)cc1
  A: .	B: 0%	C: .	D: -0.5%

CSc1ncc(C(=O)Nc2ccccc2F)c(-c2ccccc2)n1
  A: .	B: 18%	C: -1%	D: -0.9%

Cc1ccccc1CSCCNC(=O)COc1ccc(Cl)cc1
  A: -8	B: 5%	C: -12%	D: -3.1%

COc1cccc(N2C(=O)CC(N3CCN(C(=O)c4ccco4)CC3)C2=O)c1 (centres undefined)
  A: -4	B: 0%	C: -7%	D: 0.2%

O=C(NNc1cccc(Cl)n1)Nc1cccc(C(F)(F)F)c1
  A: -8	B: 0%	C: 6%	D: -3.7%

CC12COC3(C(=O)Nc4ccc5ccccc5c4)CC1CCC32C (centres undefined)
  A: -3	B: 13%	C: -67%	D: 2.5%

CN1CCC(N(C)C(=O)COc2ccc(S(=O)(=O)N3CCOCC3)cc2)CC1
  A: -4	B: 0%	C: 0%	D: -2.9%

COCCCNS(=O)(=O)c1ccc2c(c1)OCCO2
  A: 6	B: -5%	C: 2%	D: -5.4%

COc1ccc(-c2cc(C(=O)Nc3c(C)n(C)n(-c4ccccc4)c3=O)c3ccccc3n2)cc1OC
  A: .	B: -10%	C: 1%	D: ?

Cc1nn(CC(=O)NCc2cccc(F)c2)c(=O)c2cccn12
  A: .	B: 7%	C: -5%	D: 0.2%

COC(=O)c1c(NC(=O)c2ccco2)sc2c1CCN(C(C)C)C2
  A: .	B: ?	C: -6%	D: ?

CCOC(=O)C1CCN(C(=O)Cn2nc(CC)n3cccc3c2=O)CC1
  A: .	B: -3%	C: -1%	D: -1.4%

Cc1nc2ccc(S(=O)(=O)Nc3ccccc3C)cc2s1
  A: 0	B: -4%	C: 15%	D: 5.4%

Cn1c(SCC(=O)c2ccccc2)nnc1C1CC1
  A: -4	B: -2%	C: -17%	D: -0.4%

Cn1nc(Oc2ncc(C(F)(F)F)cc2Cl)cc1C(F)(F)F
  A: -12	B: -1%	C: -1%	D: 4.8%

CCn1c(C)c(C)c2cc(C(=O)N3CCc4ccccc4C3)ccc21
  A: .	B: -8%	C: 13%	D: 2.8%

O=c1c2c3c(sc2nc2n1CCCCC2)CCC3
  A: 6	B: -4%	C: -34%	D: -2.1%

COc1ccccc1N1CCN(C(=O)CSc2nc(-c3ccccc3)cc(=O)[nH]2)CC1
  A: -8	B: -19%	C: -1%	D: 3.5%

O=C1/C(=C/c2cccnc2)Oc2cc(OS(=O)(=O)c3ccc(F)cc3)ccc21
  A: -6	B: -1%	C: -1%	D: 9.0%

CNC(=S)NNC(=O)c1sccc1OCc1ccc(C)cc1
  A: 0	B: -6%	C: -8%	D: -3.5%

COc1cc(SC)ccc1C(=O)OCC(=O)N1CCN(C(C)=O)CC1
  A: .	B: 6%	C: .	D: -0.3%

COc1ccc(/C=C/C(=O)NCc2ccccn2)cc1
  A: -1	B: -11%	C: -36%	D: -2.4%

O=C(O)c1ccccc1-n1ncc2c1/C(=C/c1ccc(Cl)cc1)CC2
  A: -6	B: .	C: -2%	D: .

O=C(CN1C2=NCCN2c2ccccc21)C12CC3CC(CC(C3)C1)C2
  A: 1	B: 34%	C: 0%	D: 7.6%

COc1ccc(NC(=O)CSc2nnc(-c3ccccn3)n2Cc2ccco2)cc1OC
  A: 6	B: -5%	C: -3%	D: 0.0%

C=CCn1c(-c2ccc(C)cc2)nc2ccccc21
  A: 9	B: 1%	C: -34%	D: 3.0%

CC(=O)N(C)Cc1ccc(C(=O)CSc2nnc(C3CC3)n2C2CC2)cc1
  A: .	B: -1%	C: .	D: 2.2%

CCN1CCc2nc(NC(=O)Cc3ccc4c(c3)OCCO4)sc2C1
  A: 17	B: -12%	C: -9%	D: 1.0%

Quoted from the listing:
Entry of COC(=O)c1c(NC(=O)c2ccco2)sc2c1CCN(C(C)C)C2 in miR-21 FLuc: -6%
Entry of CC(=O)N(C)Cc1ccc(C(=O)CSc2nnc(C3CC3)n2C2CC2)cc1 in Rango release inh: -1%
Entry of COc1ccccc1N1CCN(C(=O)CSc2nc(-c3ccccc3)cc(=O)[nH]2)CC1 in Rango release inh: -19%

Arranged by the number under Rango-impB inh (falling): 3 from the list above.
molecule	Rango-impB inh
Cc1nc2ccc(S(=O)(=O)Nc3ccccc3C)cc2s1	5.4%
O=C(CSc1nnc(-c2ccccc2O)o1)N1CCCCC1	0.3%
COc1cc(CC(=O)OCC(=O)N2C(C)CCCC2C)cc(OC)c1OC (centres undefined)	0.2%

(list continues)
Labels used below – A = GLA inh pH 4.5; B = Rango release inh; C = miR-21 FLuc; D = Rango-impB inh
COc1ccccc1CCNC(=O)c1ccc(NC(=O)CC2SC(N3CCCC3)=NC2=O)cc1 (centres undefined)
  A: .	B: 2%	C: .	D: -2.8%

CN(C)C(=O)c1ccc(Nc2nnc(-c3ccc(O)cc3)c3ccccc23)cc1
  A: .	B: -19%	C: 7%	D: 0.3%

C/C(=N/NC(=O)c1ccoc1C)c1ccc(N2CCOCC2)cc1
  A: 11	B: 1%	C: -70%	D: 2.7%

O=C(NC(Cc1ccccc1)C(=O)O)c1ccc(S(=O)(=O)N2CCCC2)cc1 (centres undefined)
  A: -2	B: 1%	C: 0%	D: 0.3%

Cc1cc(C)n(CC(O)COc2cccc(OCC(O)Cn3nc(C)cc3C)c2)n1 (centres undefined)
  A: -8	B: -18%	C: 4%	D: 4.2%

O=C(NCc1cccnc1)Nc1ccc(Br)cc1
  A: .	B: -6%	C: -32%	D: 0.2%

CCOC(=O)c1c(O)c(Cl)c(C)[nH]c1=O
  A: 6	B: -1%	C: -1%	D: 1.7%

CC(Sc1ccc(Cl)cc1)C(=O)Nc1ccccc1-c1ccccc1 (centres undefined)
  A: 9	B: 13%	C: -1%	D: 1.4%

CCCCn1c(SCC(=O)NCCOC)nc2ccc(N3CCOCC3)cc2c1=O
  A: 5	B: -17%	C: -1%	D: ?

COc1cccc(C2CC(C(F)(F)F)n3ncc(C(=O)O)c3N2)c1 (centres undefined)
  A: -1	B: -6%	C: 6%	D: 0.2%

CCOCCCNC(=O)c1cc2c(=O)[nH]c3ccccc3c2s1
  A: .	B: -11%	C: -15%	D: -1.6%

O=C(c1cc(Cl)ccc1Cl)N1CCN(c2ccccn2)CC1
  A: -6	B: 4%	C: 0%	D: 2.1%

CCCOc1ccc(N2C(=O)CC(SCCc3nc4ccccc4[nH]3)C2=O)cc1 (centres undefined)
  A: -1	B: 19%	C: -1%	D: -3.1%

O=C(c1ccc(CS(=O)c2ccccc2Cl)o1)N1CCN(c2ccccc2)CC1 (centres undefined)
  A: .	B: 3%	C: 21%	D: -0.8%

O=C(Nc1cccnc1)c1cn(-c2ccccc2)nc1-c1cccs1
  A: 0	B: -1%	C: -7%	D: -0.2%

Cc1ccc(-n2nc3ccc(N)cc3n2)c(C)c1
  A: .	B: -6%	C: 12%	D: -1.5%

Cc1ccc(CNC(=O)CSc2nc3ccccc3c3nc(C)nn23)cc1
  A: 3	B: .	C: 0%	D: .

CCOc1cccc(C(=O)Nc2ccc(N3CCCC3)cc2)c1
  A: .	B: -16%	C: -24%	D: 1.7%

CCC(C(=O)NCc1cccs1)n1nc(C)n2c(cc3occc32)c1=O (centres undefined)
  A: .	B: -2%	C: 2%	D: 7.2%

CC(=O)Nc1ccc(C2(O)COc3ccccc3O2)cc1 (centres undefined)
  A: 8	B: 1%	C: -35%	D: 0.4%

Cc1ccc(N2C(=O)c3ccc(N)cc3C2=O)cc1
  A: 3	B: ?	C: -39%	D: 2.8%

CCOC(=O)c1c(NC(=O)Cn2nc(C(=O)O)c3ccccc3c2=O)sc(CC)c1C
  A: 2	B: 14%	C: -4%	D: -3.5%

COc1cc(-c2nc(C(=O)NC3CCN(Cc4ccccc4)CC3)cc3c2[nH]c2ccccc23)cc(OC)c1OC
  A: .	B: 3%	C: 16%	D: -0.8%

At a glance, some entries already given:
Labels used below – A = GLA inh pH 4.5; B = Rango release inh; C = miR-21 FLuc; D = Rango-impB inh
CCOC(=O)c1c(O)c(Cl)c(C)[nH]c1=O
  A: 6	B: -1%	C: -1%	D: 1.7%

CC(Sc1ccc(Cl)cc1)C(=O)Nc1ccccc1-c1ccccc1 (centres undefined)
  A: 9	B: 13%	C: -1%	D: 1.4%

CCCCn1c(SCC(=O)NCCOC)nc2ccc(N3CCOCC3)cc2c1=O
  A: 5	B: -17%	C: -1%	D: ?

COc1cccc(C2CC(C(F)(F)F)n3ncc(C(=O)O)c3N2)c1 (centres undefined)
  A: -1	B: -6%	C: 6%	D: 0.2%

CCOCCCNC(=O)c1cc2c(=O)[nH]c3ccccc3c2s1
  A: .	B: -11%	C: -15%	D: -1.6%

O=C(c1cc(Cl)ccc1Cl)N1CCN(c2ccccn2)CC1
  A: -6	B: 4%	C: 0%	D: 2.1%

CCCOc1ccc(N2C(=O)CC(SCCc3nc4ccccc4[nH]3)C2=O)cc1 (centres undefined)
  A: -1	B: 19%	C: -1%	D: -3.1%

Not all compounds are listed; rates above refer to the full screens.
